GIRK2 act: activators of human GIRK2 potassium channels; HEK293-GIRK2 thallium flux, Thallos fluorescence; calls only for hits at 25 µM; 63,000 tested, 0.05% active; AID 1259325, 2017;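 active = among the strongest 0.2% of first-round signals and kept after retests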;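 note: first round at about 10 µM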
Target sequence (P48051 whole entry, looked up): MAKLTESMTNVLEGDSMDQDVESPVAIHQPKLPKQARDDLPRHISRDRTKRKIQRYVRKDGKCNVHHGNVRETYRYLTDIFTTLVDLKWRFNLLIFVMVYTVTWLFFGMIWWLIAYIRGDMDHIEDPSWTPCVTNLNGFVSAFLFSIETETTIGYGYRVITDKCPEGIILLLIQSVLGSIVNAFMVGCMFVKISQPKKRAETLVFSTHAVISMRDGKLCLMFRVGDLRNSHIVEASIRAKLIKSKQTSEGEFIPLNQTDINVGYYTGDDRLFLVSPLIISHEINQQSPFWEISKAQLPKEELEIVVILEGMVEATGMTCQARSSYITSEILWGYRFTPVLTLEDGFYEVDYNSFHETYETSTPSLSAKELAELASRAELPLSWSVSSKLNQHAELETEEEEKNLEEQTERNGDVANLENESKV
Calls only; i = inactive. Some of the compounds tested; rates above refer to the full screens.

SMILES	GIRK2 act
CCn1c(SCC(=O)NCc2ccc(Cl)cc2)nc2nc(N3CCC(C)CC3)sc2c1=O	i
CCc1nc2cc([N+](=O)[O-])ccc2s1	i
COCCCNC(=O)CSc1nc2cc(OC)c(OC)cc2c2nc(-c3ccccc3)nn12	i
COc1ccc(S(=O)(=O)N2CCCCC2CC(=O)NCc2ccccc2)cc1 (centres undefined)	i
CC(NC(=O)c1coc(NC(=O)c2ccsc2)n1)c1ccccc1 (centres undefined)	i
COc1ccc(-c2noc(-c3c(SC)nn(CC(=O)Nc4ccccc4F)c3N)n2)cc1OC	i
N#Cc1ncn(Cc2ccc3c(c2)OCO3)c1N	i
O=C(CSc1cc(NCc2ccc(Cl)cc2)ncn1)Nc1ccccc1Br	i
COc1ccccc1CCNC(=O)C(=O)NCCC1CCCCN1S(=O)(=O)c1ccc(F)cc1 (centres undefined)	i
N#Cc1nc(-c2ccco2)oc1N1CCN(C(=O)c2ccco2)CC1	i
O=C(Cn1nc2c(SCc3ccccc3)nccn2c1=O)NC1CCCC1	i
CCC(C(=O)NCCOC)n1cccc(-c2nc(-c3ccsc3)no2)c1=O (centres undefined)	i
CCCN(C)c1nccn2c(=O)n(CC(=O)Nc3cccc(C(C)=O)c3)nc12	i
COC(=O)c1ccc(S(=O)(=O)N2CC(c3nc4ccccc4[nH]3)C2)cc1	i
COc1ccc(C(=O)Nc2c3c(nn2CC(=O)NCC2CCCO2)CSC3)c(OC)c1 (centres undefined)	i
N#Cc1ccc(C(=O)N2CCOCC2CO)cc1 (centres undefined)	i
Cn1nnnc1SCC(=O)N1CCN(c2ccc(-c3ccc4c(c3)OCO4)nn2)CC1	i
O=C(Cn1nc2c(N3CCOCC3)nccn2c1=O)NCCCc1ccccc1	i
O=C(NCCC(O)C1CC1)c1ccccc1C(F)(F)F (centres undefined)	i
COc1cccc(COC(=O)c2nnn(-c3ccc(Br)cc3)c2C)c1	i

In another format: 2 of the compounds above.
mol | GIRK2 act
N#Cc1ncn(Cc2ccc3c(c2)OCO3)c1N | i
O=C(CSc1cc(NCc2ccc(Cl)cc2)ncn1)Nc1ccccc1Br | i

Continuation.
SMILES	GIRK2 act
COc1ncc(NC(=O)c2cccc(OC)c2OC)cn1	i
COc1ccccc1N1CCN(C(=O)c2ccc(=O)n(C)n2)CC1	i
O=C(CN1C(=O)CCC1=O)Nc1cccc2ccc(-n3cccc3)nc12	i
OC(COC1CCCC1)CN1CCN(c2cccc(C(F)(F)F)c2)CC1 (centres undefined)	i
O=C(NCC1CCN(S(=O)(=O)c2cccnc2)CC1)Nc1ccccc1F	i
COc1cc2[nH]c(=O)n(Cc3ccc(C(=O)N4CCCCC4)cc3)c(=O)c2cc1OC	i
Cc1nc(NC(=O)C2CN(C(=O)c3ccc(F)c(F)c3)C2)sc1C	i
COc1ccc(NC(=O)Cn2nc3nc(N4CCOCC4)ccn3c2=O)cc1Cl	i
CCOc1ccc(N2C(=O)/C(=C\c3ccc(O)cc3)SC2=S)cc1	i
CCOc1ccccc1C(=O)NCCc1nc(-c2ccco2)cn1C	i
C=CCn1c(SCC(=O)Nc2ncn[nH]2)nc2cc3c(cc2c1=O)OCO3	i
CCOc1ccc(Nc2nn3c(=O)c4ccc(Cl)cc4nc3s2)cc1	i
Cc1nn(C)c(C)c1CCC(=O)NCc1cc(-c2ccco2)on1	i
COc1ccc(CNC(=O)C2CCN(c3ncccc3-c3nc(-c4cccc(F)c4)no3)CC2)cc1	i
CS(=O)(=O)N1CCCc2ccc(NC(=O)NCc3ccc(F)cc3)cc21	i
CC(=O)Nc1ccc(C(=O)NCC2CCC(c3nc4ccccc4n3C)CC2)cc1 (centres undefined)	i
Cc1noc(-c2ccc(N3CCCC(C(=O)NC(C)c4ccco4)C3)nc2)n1 (centres undefined)	i
O=S(=O)(Cc1ccc(F)cc1)N1CCN(CC(F)(F)F)CC1	i
COc1ccc(C)cc1S(=O)(=O)Nc1ccc2c(c1)CCCN2S(=O)(=O)c1ccc(F)cc1	i
Cn1cccc1CN(Cc1cccs1)C(=O)Cc1ccc(F)cc1	i
Cc1cc(C)c(S(=O)(=O)NC(C)C)c(C)c1N(C)S(C)(=O)=O	i
COCCc1nnc(NC(=O)COc2ccc(Cl)cc2)o1	i
O=C(c1csc(Nc2ncccn2)n1)N1CCN(c2ccccc2O)CC1	i
COc1ccc(Cl)cc1NC(=O)CSc1nc2c(cc1C#N)C(=O)CC(C)(C)C2	i
Cn1cc(OCc2ccccc2)c(=O)cc1C(=O)NCc1cccnc1	i
Cn1nnn(-c2ccc(NS(=O)(=O)C3CCCCC3)cc2)c1=O	i
Cc1ccc(-n2ccc(=O)c(-c3nc(-c4ccccc4C)no3)n2)cc1	i
O=C(Nc1ccccc1)OC1CCCC(NC(=O)c2c(F)cccc2Cl)C1 (centres undefined)	i
CC(C)(C)C(=O)Nc1ccc(C(=O)NCCNS(=O)(=O)c2cccs2)cc1	i
COc1ccc(C(=O)Nc2cc(C3CC3)nn2-c2nc(C(C)C)cc(=O)[nH]2)cc1	i
O=C(Nc1nc2c(s1)CN(C(=O)C1COc3ccccc3O1)CC2)c1ccccn1 (centres undefined)	i
CCOC(=O)/C(C#N)=C1\SC(Cc2ccccc2Cl)C(=O)N1c1ccc(C)cc1 (centres undefined)	i
COc1ccccc1CNC(=O)C(=O)c1cn(CC(=O)N2CCCCC2)c2ccccc12	i
O=C1CN(C(=O)c2ccc(OCc3nc(-c4ccco4)cs3)cc2)CCN1	i
Cc1ccc(C(=O)Nc2ccc3c(c2)CCCN3S(=O)(=O)c2ccccc2)cc1	i
CN(C)CC1CSCCCN1C(=O)c1ccc(Br)o1 (centres undefined)	i
CN(C)S(=O)(=O)NCC#CCOc1ccc2c(c1)OCO2	i
O=C(OCC1=C[C@@H](O)[C@@H]2C=CO[C@@H](O[C@@H]3O[C@H](CO)[C@@H](O)[C@H](O)[C@H]3O)[C@H]12)c1ccc(O)cc1	i
O=C(COc1ccc2ccccc2c1)NCCC(O)C1CC1 (centres undefined)	i
NC(=O)CSc1nnc(N)s1	i
Cc1cnc(-n2nnc(C(=O)NCC(N)=O)c2C)s1	i
COc1ccc(C2c3c(oc4ccc(C)cc4c3=O)C(=O)N2c2nc(C)c(C)s2)cc1 (centres undefined)	i
CN(C)c1ncc(NC(=O)Nc2cccc(C(F)(F)F)c2)cn1	i
COc1ccccc1NC(=O)CSc1nccnc1N1CCN(c2cccc(C)c2C)CC1	i
O=C(Nc1ccc(Br)cc1)c1ccc2snnc2c1	i
C/C=C1/[C@H](O[C@@H]2O[C@H](CO)[C@@H](O)[C@H](O)[C@H]2O)OC=C(C(=O)OC)[C@H]1CC(=O)OCCc1ccc(O)cc1	i
Cn1nc(-c2ccc(F)cc2)cc1C(=O)NCC1(c2cccs2)CCOCC1	i
Cn1nc(-c2ccc(F)cc2)cc1C(=O)NC1CC(=O)N(C2CC2)C1 (centres undefined)	i
Cc1cc(NC(=O)CN2CCN(Cc3nc4ccccc4[nH]3)CC2)no1	i
COc1ccc(-c2coc3c4c(ccc3c2=O)OCN(C2CCS(=O)(=O)C2)C4)cc1OC (centres undefined)	i
Nc1ccc2c3c(cccc13)C(=O)N(c1ccccc1)C2=O	i
COC(=O)c1ccccc1NC(=O)Cn1nc2c(Oc3ccccc3C)nccn2c1=O	i
COC(=O)c1ccc(N/C=C(\C#N)c2nc(-c3ccc(OC)c(OC)c3)cs2)cc1	i
COc1ccc(NC(=O)Cn2ccn3nc4c(c3c2=O)CCCC4)cc1	i
O=C(NCc1ccc2c(c1)OCO2)C(=O)N1CCN(c2cccc(Cl)c2)CC1	i
CCOc1ccc(C2NC(=O)NC(C)=C2C(=O)Nc2ccccc2OC)cc1OC (centres undefined)	i
O=C1/C(=C/c2cccnc2)Oc2c1ccc1c2CN(CCc2cccs2)CO1	i
COCCCn1c(-c2cc(OC)c(OC)c(OC)c2)nc2nc3ccccc3nc21	i
Cc1ccc(CNC(=O)c2ccc3c(=O)n4nc(Nc5ccccc5C)sc4nc3c2)cc1	i
COc1ccccc1-n1ncc2c(C)nnc(SCC(=O)NCC3CCCO3)c21 (centres undefined)	i
Other entries follow:
SMILES	GIRK2 act
Cc1ccc(-n2ncc3c(C(C)C)nnc(SCC(=O)N4CCCC4)c32)cc1	i
Cc1cccc(N2CCN(S(=O)(=O)c3ccc(Cl)cc3)CC2)c1C	i
CCOc1ccccc1NC(=O)CSc1nccnc1N1CCc2ccccc2C1	i
CCOc1ccc(-c2noc(-c3nn(-c4ccc(OC)cc4)c(=O)c4ccccc34)n2)cc1OC	i
COC1CC(OC(C)=O)C(C)(C)/C=C/C(C)(O)C(O)C2(OC(C)=O)C(O)C(C)C(OC(=O)c3ccccc3)C2/C=C\1C (centres undefined)	i
COc1cccc2cc(C(=O)C3=C(O)C(=O)N(CCCN(C)C)C3c3ccncc3)oc12 (centres undefined)	i
CC(C)CC(=O)Nc1ccc(-n2cnc(C(=O)N3CCC4(CC3)OCCO4)c2)nc1	i
COc1cccc2sc(OC3CN(C(=O)Nc4ccccc4F)C3)nc12	i
Cc1cccc(NC(=O)CSc2ccc(-c3nc(-c4ccccc4)no3)cn2)c1C	i
COc1ncc(NC(=O)Nc2cc(Cl)c(OC)cc2OC)cn1	i
CC(C)c1ccc(-c2noc(C3CCN(S(=O)(=O)c4cccs4)CC3)n2)cc1	i
CCOC(=O)CCC(=O)N1CCN(Cc2nc3ccccc3[nH]2)CC1	i
O=C(Nc1ccc(Cl)c2ncsc12)c1ccc(Br)s1	i
CCCCNC(=O)C1=Cc2cc(OC)ccc2OC=C1	i
COc1cccc(CN2CCc3nc(SCc4nc(-c5ccc(C)cc5)oc4C)[nH]c(=O)c3C2)c1	i
Cc1noc(C)c1CN1CCN(C(=O)c2cc3ccccc3o2)CC1	i
CC(C)(C)C(=O)Nc1ccc(C(=O)OC2CCCCC2)cc1	i
CC(C)(Oc1ccc(Cl)cc1)C(=O)NCCC(O)C1CC1 (centres undefined)	i
OC(COc1ccc(-c2ccccc2)cc1)CN1CCCCC1 (centres undefined)	i
COc1ccc2nc(N(CCCn3ccnc3)C(=O)Cc3ccc(F)cc3)sc2c1	i
Cc1cnnn1-c1ccc(C(=O)Nc2ccc(Cl)cc2)cc1	i
Cn1cccc(C(=O)N2CCc3nc(NC(=O)C4CC4)sc3C2)c1=O	i
COc1ccccc1-c1cn2nnc(C(=O)N3CCC(C(N)=O)CC3)c2c(=O)[nH]1	i
O=C(c1ccccc1Cl)N1CCC(COCc2ccccc2)CC1	i
O=C(NCCCN1CCN(c2ccccc2)CC1)C(=O)NCc1cccs1	i
COc1ccc(CCC(=O)Nc2ccc(OC)c(N3CCCC3=O)c2)cc1	i
CCOc1cccc2cc(-c3cc(=O)oc4cc(OC)ccc34)oc12	i
COc1ccc(CNC(=O)C2CCN(c3cc(Oc4ccccc4)ncn3)CC2)cc1OC	i
Cc1cc2oc(=O)cc(CN3CCN(c4ccccc4)CC3)c2cc1O	i
CCn1c(SCC(=O)Nc2ccc(C)c(C)c2)nc2c3cc(OC)ccc3n(C)c2c1=O	i
O=C(Cn1nc(-c2ccccc2)c2sc(N3CCOCC3)nc2c1=O)Nc1ccccc1	i
O=c1c(=O)n(-c2ccccc2)ccn1Cc1nc(-c2cccc(C(F)(F)F)c2)no1	i
Cc1c(CNC(=O)c2ccc(S(N)(=O)=O)cc2)sc2nc(-c3ccc(F)cc3)cn12	i
COc1cccc(NC(=O)Nc2ccc(Nc3ccc(-n4nc(C)cc4C)nn3)cc2)c1	i
Nc1c(S(=O)(=O)c2cccs2)c2nc3ccccc3nc2n1/N=C\c1cccc(O)c1	i
CC(C)c1cnc2c(c1SCc1ccc(Cl)c(Cl)c1)c(=O)n(C)c(=O)n2C	i
C=C(Oc1cc(C(=O)OCC2OC(n3ccc(=O)[nH]c3=O)C(OC(C)=O)C2OC(=O)c2c(C)cc(O)cc2OC)ccc1O)C(=O)O (centres undefined)	i
COc1ccccc1CNC(=O)CN(C)c1nc2c(C)ccc(C)c2s1	i
COc1ccc(CC(C)(O)CNC(=O)c2ccco2)cc1 (centres undefined)	i
COC(=O)C1CCN(C(=O)CCc2csc(NC(=O)Nc3ccc(OC)cc3)n2)CC1	i
COc1cc(OC)cc(-c2noc(-c3nnn(-c4ccc(F)c(C)c4)c3C)n2)c1	i
O=C(NCCC(O)c1ccc2c(c1)OCO2)c1c(F)cccc1Cl (centres undefined)	i
O=C(NCC1CCN(C(=O)c2ccncc2)CC1)c1cccc(Br)c1	i
COc1ccc(C)cc1N1CCn2c1nc1c2c(=O)n(C/C=C/c2ccccc2)c(=O)n1C	i
Cc1cn2c3c(=O)n(CC(=O)OCc4ccccc4)c(=O)n(C)c3nc2n1-c1ccc(F)cc1	i
COc1ccc(CNC(=O)Nc2nnc(-c3cccs3)o2)cc1	i

By substructure, the compounds so far containing an aryl thioether with sulfur outside any ring (17)
SMILES	GIRK2 act
CCn1c(SCC(=O)NCc2ccc(Cl)cc2)nc2nc(N3CCC(C)CC3)sc2c1=O	i
COCCCNC(=O)CSc1nc2cc(OC)c(OC)cc2c2nc(-c3ccccc3)nn12	i
COc1ccc(-c2noc(-c3c(SC)nn(CC(=O)Nc4ccccc4F)c3N)n2)cc1OC	i
O=C(CSc1cc(NCc2ccc(Cl)cc2)ncn1)Nc1ccccc1Br	i
O=C(Cn1nc2c(SCc3ccccc3)nccn2c1=O)NC1CCCC1	i
Cn1nnnc1SCC(=O)N1CCN(c2ccc(-c3ccc4c(c3)OCO4)nn2)CC1	i
C=CCn1c(SCC(=O)Nc2ncn[nH]2)nc2cc3c(cc2c1=O)OCO3	i
COc1ccc(Cl)cc1NC(=O)CSc1nc2c(cc1C#N)C(=O)CC(C)(C)C2	i
NC(=O)CSc1nnc(N)s1	i
COc1ccccc1NC(=O)CSc1nccnc1N1CCN(c2cccc(C)c2C)CC1	i
COc1ccccc1-n1ncc2c(C)nnc(SCC(=O)NCC3CCCO3)c21 (centres undefined)	i
Cc1ccc(-n2ncc3c(C(C)C)nnc(SCC(=O)N4CCCC4)c32)cc1	i
CCOc1ccccc1NC(=O)CSc1nccnc1N1CCc2ccccc2C1	i
Cc1cccc(NC(=O)CSc2ccc(-c3nc(-c4ccccc4)no3)cn2)c1C	i
COc1cccc(CN2CCc3nc(SCc4nc(-c5ccc(C)cc5)oc4C)[nH]c(=O)c3C2)c1	i
CCn1c(SCC(=O)Nc2ccc(C)c(C)c2)nc2c3cc(OC)ccc3n(C)c2c1=O	i
CC(C)c1cnc2c(c1SCc1ccc(Cl)c(Cl)c1)c(=O)n(C)c(=O)n2C	i
